CSC inhib: blocks cancer stem cells. cancer stem cell-like cells viability, luminescence. inhibition, % at 7.5 µM. 1.1% of 300,000 active. AID 2717;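 active = mean at 75% or more and at least half the replicates too; inconclusive = mean and replicates disagree; tested in HMLE shEcad cells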;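 note: 0% = median of negative and 100% = median of positive control wells; the first replicate is given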
MT1-MMP act inh: MT1-MMP (human) activation inhibition. P50281. GFP/RFP ratio change, % at 20 µM. HT1080 RFP-PRO-GFP cells, GFP/RFP ratio fluorescence, overnight; percent of plate control window, DMSO zero. 0.061% of 360,000 active. AID 651647;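 active = GFP/RFP ratio change of at least 30% with cell ATP level not reduced by more than half and red fluorescence within 50% of control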; note: strong numbers were not always called active
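Read-out: GFP/RFP fluorescence ratio; Test system: RFP-PRO-GFP reporter HT1080 cells; Compound dosing: single-point 20 µM compound, 1% DMSO; Times: overnight compound exposure at 37 °C.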
eIF4H inh: inhibitors of RNA binding by human eIF4H | Q15056 | eIF4H fluorescence polarization binding assay | inhibition, % at 35 µM | 0.94% of 290,000 active | AID 2012;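 active = 50% or more with normal probe brightness, or confirmed in later tests; inconclusive = above 50% with abnormal brightness, or retests that disagree; inactive = below 50% or failed in later tests; about a fifth of its hits are not listed in these tables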;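 note: calls also rest on retests at 20 µM and on dose response follow-up; 0% = protein and probe with vehicle and 100% = probe without protein; strong numbers were not always called active; many hits fall short of the cut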
Yeast UUG start: alters start codon recognition fidelity in yeast; S. cerevisiae UUG-firefly luciferase reporter, luminescence/redox ratio; activity score, % at 18.7 µM; 0.13% of 350,000 active;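 active = replicate mean at a twofold rise or more, about +100% in these data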;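 note: firefly luciferase made from a UUG start codon reports start codon fidelity; reporter light over untreated wells divided by growth signal over untreated wells; some hits fall short of that in this replicate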
PABP polyA inh: blocks human PABP binding to poly(A) RNA. fluorescence polarization. P11940. inhibition, % at 35 µM. 1% of 290,000 active;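 active = 50% or more with normal probe brightness, or confirmed in later tests; inconclusive = above 50% with abnormal brightness, or retests that disagree; inactive = below 50% or failed in later tests; about a fifth of its hits are not listed in these tables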;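 note: calls also rest on retests at 20 µM and on dose response follow-up; controls were probe without protein and protein plus probe with vehicle; some compounds called inactive have numbers as strong as hits; many hits fall short of the cut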
Target sequence (P11940 whole entry, looked up): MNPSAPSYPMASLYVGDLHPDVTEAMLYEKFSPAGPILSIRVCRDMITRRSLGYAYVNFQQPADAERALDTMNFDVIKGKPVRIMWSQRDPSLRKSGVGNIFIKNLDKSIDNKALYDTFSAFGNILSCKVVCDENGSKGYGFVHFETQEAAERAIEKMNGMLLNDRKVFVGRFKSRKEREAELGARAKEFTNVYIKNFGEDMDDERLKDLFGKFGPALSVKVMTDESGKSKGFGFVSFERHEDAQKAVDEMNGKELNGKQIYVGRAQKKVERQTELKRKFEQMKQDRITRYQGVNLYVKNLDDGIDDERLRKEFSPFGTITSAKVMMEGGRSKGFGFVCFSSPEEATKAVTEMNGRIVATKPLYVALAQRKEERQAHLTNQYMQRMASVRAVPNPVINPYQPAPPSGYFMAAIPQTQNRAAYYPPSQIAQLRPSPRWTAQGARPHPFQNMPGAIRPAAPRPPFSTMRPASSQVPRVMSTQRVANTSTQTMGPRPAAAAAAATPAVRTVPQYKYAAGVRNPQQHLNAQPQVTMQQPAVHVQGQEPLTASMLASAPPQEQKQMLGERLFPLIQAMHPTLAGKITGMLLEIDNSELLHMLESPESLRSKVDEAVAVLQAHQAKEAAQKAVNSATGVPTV
Env fusion inh: blocks HIV Env-driven cell-cell fusion | inhibition, % at 12.3 µM | HeLa-JRFL Env/CEM21 cell fusion, luciferase | 1.1% of 360,000 active;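 active = mean replicate inhibition score of at least 50 and every replicate individually at or above 50; inconclusive = only one of the two criteria met; inactive = mean below 50 and not all replicates reaching 50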;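 note: 0% = plate neutral controls and 100% = maraviroc near 300 nM; one replicate is shown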
Rce1 inh: blocks yeast Ras-converting enzyme | calls only | 0.27% of 290,000 active | Q03530 | yeast membranes, quenched prenylated peptide cleavage fluorescence;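 active = fall in fluorescence gain of 50% or more versus controls, with final raw signal at or below 3038400; inconclusive = same 50% fall but final raw signal above 3038400; inactive = fall in fluorescence gain under 50%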;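 note: plate controls were neutral control wells for no effect and wells lacking membranes for full effect; tested at 10 µM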
eIF4H inh retest: recorded beside eIF4H inh, whose call it bears; inhibition, %; compound at 20 µM; confirmation average;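 mean of two retest wells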
PABP polyA inh retest: second read-out of PABP polyA inh, no call of its own (marks repeat the call); inhibition, %; compound at 20 µM; confirmation repeats;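 mean of two retest wells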
MT1-MMP act inh RFP: second read-out of MT1-MMP act inh, no call of its own (marks repeat the call); RFP signal change, %; measured here: RFP expression control read;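 0 = vehicle wells; hits needed this value within 50% of zero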
* = called active by the depositor; i = inactive; ? = inconclusive; . = not tested or not shown. The list is partial; count on the stated rates, not on these rows.

SMILES | CSC inhib | MT1-MMP act inh | MT1-MMP act inh RFP | eIF4H inh | Yeast UUG start | PABP polyA inh | Env fusion inh | Rce1 inh | others
CCOC(=O)N1CCC(Nc2nc3ccccc3nc2NS(=O)(=O)c2ccc(Cl)cc2)CC1 | 37 | -7 | -5 | 40 | . | 62 | -32 | i | eIF4H inh retest=-12;PABP polyA inh retest=2
O=c1cc(NCCc2ccccc2)c2ccccc2o1 | -11 | -4 | -18 | -5 | . | -1 | 3 | i
CCCOc1ccc(CNC(=O)Cn2ncc3ccccc32)cc1 | -7 | 10 | 3 | -4 | -9 | -4 | -13 | i
CCCCC(NC(=O)c1ccc(Cl)cc1)C(=O)O (centres undefined) | . | 6 | 0 | -8 | -5 | 6 | . | i
C=CCn1c(SCc2ccc(C#N)cc2)nnc1-c1cccc(OC)c1 | -1 | -4 | -3 | -12 | -18 | 0 | . | i
CCOP(=O)(OCC)c1nc(-c2cccc3ccccc23)oc1N1CCCCC1 | -11 | -4 | -3 | 6 | . | -9 | 35 | ?
O=C(COC(=O)c1ccccc1C(=O)N1CCN(c2ccc(F)cc2)CC1)NCc1ccccc1 | -13 | -18 | -5 | 4 | -5 | -3 | 2 | i
Cc1ccc(C)c(OCCC(=O)OCC(=O)Nc2cc(S(=O)(=O)N3CCCCC3)ccc2C)c1 | 8 | 7 | -1 | . | 7 | . | -4 | .
COc1ccccc1C(=O)N1CCN(Cc2nc(CC3CC3)no2)CC1 | -3 | -2 | 0 | -1 | -11 | -2 | -20 | i
COC(=O)c1ccc(NC(=O)c2ccc3nc(C)sc3c2)cc1 | 7 | -2 | -2 | -7 | -22 | 0 | 9 | i
Cn1c(=O)c(=O)n(C)c2cc(S(=O)(=O)N3CCc4ccccc43)ccc21 | -12 | -3 | -1 | 0 | 4 | -1 | 39 | i
Brc1ccc(OCCN2CCOCC2)cc1 | -4 | -2 | -2 | -4 | -18 | 17 | 9 | i

2 entries drawn at random from the list so far:
SMILES | CSC inhib | MT1-MMP act inh | MT1-MMP act inh RFP | eIF4H inh | Yeast UUG start | PABP polyA inh | Env fusion inh | Rce1 inh | others
Cn1c(=O)c(=O)n(C)c2cc(S(=O)(=O)N3CCc4ccccc43)ccc21 | -12 | -3 | -1 | 0 | 4 | -1 | 39 | i
CCOP(=O)(OCC)c1nc(-c2cccc3ccccc23)oc1N1CCCCC1 | -11 | -4 | -3 | 6 | . | -9 | 35 | ?

Next part.
SMILES | CSC inhib | MT1-MMP act inh | MT1-MMP act inh RFP | eIF4H inh | Yeast UUG start | PABP polyA inh | Env fusion inh | Rce1 inh | others
CC(=O)Oc1c(I)cc(I)cc1C(=O)Nc1ccc(Cl)cc1 | 108* | 1 | -23 | -4 | -13 | 4 | 5 | i
CCOC(=O)NC(=O)c1cn(Nc2ccccc2C(F)(F)F)c(=O)[nH]c1=O | 14 | -1 | 0 | -11 | 6 | 0 | 2 | i
CN(CCC#N)S(=O)(=O)c1cc2c3c(c1)CCN3C(=O)CC2 | -5 | -1 | 1 | 2 | -12 | 6 | 5 | i
CC1CCN(C(=O)CSc2nnc(Cc3cccn3C)n2CCc2ccccc2)CC1 | 4 | -4 | -3 | 10 | -14 | -12 | -20 | i
CCOC(=O)c1cc(C)sc1/N=C/C1=C(O)CCCC1=O | 3 | 3 | 3 | 55* | . | 0.3* | -10 | i | eIF4H inh retest=94*;PABP polyA inh retest=90*
CCC/C(C#Cc1cc(OC)cc(OC)c1)=C1/c2ccccc2C(=O)N1c1ccccc1 | 11 | 2 | 2 | . | -4 | . | -3 | .
Cc1ccnc(SCCn2c(N3CCCCC3)nc3c2c(=O)n(C)c(=O)n3C)n1 | -4 | 2 | -3 | -5 | 12 | 0 | . | i
NC(=O)NC(=O)C(Nc1ccc2c(c1)CCC2)c1ccccc1 (centres undefined) | -10 | -5 | -4 | 2 | -17 | 13 | -2 | i
C=CC[C@H](CC(=O)N(CCO)Cc1ccccc1)C(=O)N[C@H](COC(=O)[C@H](CC=C)CC(=O)OC(C)(C)C)Cc1c[nH]c2ccccc12 | . | -6 | -16 | . | 7 | . | 12 | .
O=C(CSc1cn(CCNC(=O)c2ccccc2)c2ccccc12)NCc1ccco1 | 2 | 5 | -11 | -2 | -9 | -3 | -15 | i
COc1cccc(C(=O)NCCS(=O)(=O)NC(C)CCc2ccccc2)c1 (centres undefined) | -10 | 0 | 0 | . | 4 | . | 5 | i
Clc1ccc(NC2=NCCCCC2)cc1 | . | 7 | 3 | 7 | -9 | -5 | . | i
COc1ccccc1C(=O)NNc1ncc(C)s1 | -13 | -3 | 1 | -10 | 2 | -4 | -7 | i
CC(=O)C1=C(C)Nc2ncnn2C1c1ccc(C)cc1 (centres undefined) | -1 | -2 | 0 | -3 | -13 | -2 | -23 | i
N#C/C(=C/c1cn(-c2ccccc2)nc1-c1cccc(OCc2ccccc2)c1)C(=O)NCCCn1ccnc1 | ? | 1 | -9 | -23 | -20 | 7 | 26 | i
Cc1cc(N2C(=O)C(O)=C(C(=O)c3cccs3)C2c2ccccc2)no1 (centres undefined) | 8 | 0 | 3 | 3 | -20 | 5 | -74 | i
O=C(CC1C(=O)OCC2CCCCN21)Nc1ccccc1C(F)(F)F (centres undefined) | -12 | 0 | 1 | 5 | . | -1 | 10 | i
COc1cc(CN2CCNC(=O)C2CC(=O)N(C)CCC2CCOCC2)cc(OC)c1 (centres undefined) | 2 | 2 | 6 | -3 | -12 | 5 | -3 | i
CCCn1nc(C(=O)OCC(=O)NC(C)c2ccccc2)c2ccccc2c1=O (centres undefined) | -7 | -1 | -2 | -7 | . | -5 | -8 | i
CCCN1C2CCCC1CC(NC(=O)c1cccc([N+](=O)[O-])c1)C2 (centres undefined) | 9 | -2 | 2 | 0 | -16 | 4 | -64 | i
COc1ccc(-c2csc(NC(=O)c3nc(-c4ccccc4)oc3C)n2)cc1 | -4 | 0 | -1 | -17 | -5 | -8 | . | i
COc1c([N+](=O)[O-])c(=O)n(-c2ccccc2)c2ccccc12 | 8 | 0 | 3 | -7 | . | 7 | -25 | i
Cc1nc(S/C(=C/c2ccc(OCc3ccc(C(=O)O)cc3)cc2)C(=O)O)n[nH]1 | 3 | -4 | -2 | 89 | . | -2 | -9 | i | eIF4H inh retest=9;PABP polyA inh retest=-1
COc1ccc(S(=O)(=O)N2CCC(C)CC2)cc1Br | -10 | -12 | -5 | -9 | -20 | 1 | -41 | i
CCCC(=O)Nc1ccc(C(=O)NNC(=O)c2cccc([N+](=O)[O-])c2)cc1 | -9 | 1 | -2 | -9 | . | 1 | 12 | i
Cc1ccccc1CNC(=O)CC1C(=O)NCCN1CC1CCCCC1 (centres undefined) | 0 | 5 | 5 | -4 | -6 | 11 | -138 | i
CC1CN(c2nc(-c3ccccc3)nc3ccccc23)CC(C)O1 (centres undefined) | -2 | 0 | -5 | -4 | -10 | -4 | . | i
O=C(NCCN1CCOCC1)c1ccc2c(c1)N(Cc1ccc(Cl)cc1)CCS2 | 36 | 1 | 2 | 6 | -8 | -4 | 7 | i
CN(C)c1ccc(N2C(=O)CC(Sc3ccccc3C(=O)O)C2=O)cc1 (centres undefined) | -6 | 1 | 1 | 14 | . | 0 | -8 | i
CNS(=O)(=O)c1ccc(CNC[C@H]2O[C@@H](n3ccc(N)nc3=O)[C@H](O)[C@@H]2O)cc1 | . | 3 | 4 | . | -13 | . | 24 | .
Clc1ccc2scc(CN3CCCC3)c2c1 | -16 | -1 | 4 | . | . | . | -7 | i
CC12CCC(c3nnc(SCc4ccc(Cl)cc4)nc31)C2(C)C (centres undefined) | 64 | 1 | 1 | -6 | -12 | 4 | . | i
COc1ccc(NC(=S)N2CCC(c3nc4ccc(Cl)cc4[nH]3)CC2)c(OC)c1 | 3 | 6 | 0 | 9 | -13 | 4 | . | i
O=C(Cn1nc(Cl)nc1Cl)c1ccc([N+](=O)[O-])cc1 | -10 | 3 | 4 | 2 | 8 | -3 | 5 | i
CCCCOc1ccc(Cl)cc1CSc1nnc(CC)n1N | 1 | -1 | -1 | -7 | -23 | -6 | . | i
Nc1ccc(C(=O)OCC(=O)N2c3ccccc3Sc3ccccc32)cc1[N+](=O)[O-] | 6 | 0 | 1 | 1 | -8 | 14 | . | .
Cc1cc(C)n(-c2ccc(C(=O)NC3=NCCS3)cc2)n1 | -15 | -9 | -2 | 2 | -22 | -10 | -56 | i
CCN1CCN(c2nc(SC)nc3sc4c(c23)CC(C)(C)OC4)CC1 | . | -6 | -4 | -5 | -2 | 4 | . | i
COC(=O)C[C@H]1c2cc(C(F)(F)F)ccc2S(=O)(=O)N1Cc1ccccc1 | 14 | 3 | -3 | . | -13 | . | 15 | i
CC(=O)OCC1CCCC2=C(C)C(=O)CCC21COC(C)=O (centres undefined) | -14 | -1 | -2 | -5 | -11 | -4 | 1 | i
Cc1cccc2cc(C3CC(c4ccco4)=NN3S(=O)(=O)c3ccccc3)c(Cl)nc12 (centres undefined) | 2 | 0 | -2 | -12 | -17 | -1 | 1 | i
CCOc1ccc(N2CC(O)(c3ccc(F)cc3)[N+]3=C2CCCC3)cc1 (centres undefined) | 26 | -4 | 0 | -12 | . | -6 | -22 | i
Cc1ccc2c(c1)N(CC(=O)NCC(C)c1ccccc1)C(=O)c1cccnc1O2 (centres undefined) | -8 | 0 | 1 | 2 | -2 | 5 | 15 | i
C/C(CCc1ccccc1)=N\NC(=O)CC(=O)NCCc1ccccc1 | -10 | 0 | 2 | -3 | -6 | 10 | -17 | i
CCOC(=O)C(Cc1ccccc1)(NC(C)=O)C(=O)OCC | . | 6 | 1 | 2 | -5 | -7 | . | .
CCNC(=O)C/C(C)=N/NC(=O)C12CC3CC(CC(C3)C1)C2 | 8 | -2 | -2 | -3 | -14 | -7 | -9 | i
Cc1nnc(NC(=O)c2ccc(S(=O)(=O)N3CCOCC3)cc2)s1 | 6 | -1 | -3 | 2 | . | 15 | 6 | i
O=C(NCc1ccccn1)c1nc(-c2ccc(C(F)(F)F)cc2)no1 | -2 | 2 | 2 | -7 | . | 5 | 8 | i
Cc1ccccc1S(=O)(=O)N1[C@@H](c2ccc(Br)cc2)C(C(=O)O)=CC[C@H]1c1ccc(Cl)cc1 | . | -1 | -4 | . | -10 | . | 15 | .
CC(NC(=S)Nc1ccccc1OC(F)F)C(C)(C)C (centres undefined) | -5 | -7 | -3 | -4 | -16 | -1 | 17 | i
O=C(CSCc1cnn(-c2ccccc2)c1-n1cccc1)NCc1ccccn1 | 5 | -4 | -3 | 4 | -14 | -7 | 11 | i
CN(C)Cc1cc(CN(C)C)c(O)c(CCc2ccccc2)n1 | -9 | 0 | 6 | 3 | -22 | 9 | -79 | i
CCN(CC)C(=O)CN(c1cccc(Br)c1)S(C)(=O)=O | 8 | 1 | -1 | -5 | -12 | 3 | 7 | i
Cc1ccc(-n2nc3c(c2NC(=O)c2ccc4c(c2)OCO4)CS(=O)(=O)C3)c(C)c1 | -18 | 2 | 6 | 0 | -2 | 3 | -2 | i
O=C(N/N=C/c1ccc(O)cc1)c1cccc(C(F)(F)F)c1 | -10 | 5 | 6 | -2 | . | 0 | -30 | i
CC(OC(=O)Cn1[nH]c(=O)c2ccccc2c1=O)C(=O)NC1(C#N)CCCCC1 (centres undefined) | -14 | 1 | 3 | . | . | . | 3 | i
CCC(=O)Nc1nc(-c2ccc3c(c2)OCCO3)cs1 | 4 | -1 | -5 | -9 | -30 | -8 | -8 | i
CCSC1(SCC)N=C(N)C2(C#N)C(c3ccc(F)cc3)C12C#N (centres undefined) | 68 | 2 | 2 | -3 | -3 | -9 | . | i
CN(Cc1cn(C)nc1-c1ccc(Oc2ccccc2)cc1)Cc1cnc2ccccn12 | 5 | -4 | -21 | 7 | . | 4 | 8 | i
